# Yeast UUG start: modulators of start codon recognition fidelity in yeast. S. cerevisiae UUG-firefly luciferase reporter, luminescence/redox ratio. activity score, % at 18.7 µM. hit rate 0.13% among 350,000. AID 602363;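 active = replicate mean at a twofold rise or more, about +100% in these data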;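 note: firefly luciferase made from a UUG start codon reports start codon fidelity; reporter light over untreated wells divided by growth signal over untreated wells; some hits fall short of that in this replicate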
# MT1-MMP act inh: MT1-MMP (human) activation inhibition. hit rate 0.061% among 360,000. GFP/RFP ratio change, % at 20 µM. HT1080 RFP-PRO-GFP cells, GFP/RFP ratio fluorescence, overnight; percent of plate control window, DMSO zero. AID 651647. P50281;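 active = GFP/RFP ratio change of at least 30% with cell ATP level not reduced by more than half and red fluorescence within 50% of control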; note: strong numbers were not always called active
#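 Assay system: RFP-PRO-GFP reporter HT1080 cells; read-out basis: GFP/RFP fluorescence ratio; benchmarks: DMSO wells and RFP-L50D-GFP cells; doses: 20 µM single dose, 1% DMSO; schedule: overnight cell settling, then overnight compound exposure, 37 °C, 5% CO2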
# Rce1 inhib: blocks yeast Ras-converting enzyme | calls only | Q03530 | yeast membranes, quenched prenylated peptide cleavage fluorescence | AID 2563 | hit rate 0.27% among 290,000;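 active = fall in fluorescence gain of 50% or more versus controls, with final raw signal at or below 3038400; inconclusive = same 50% fall but final raw signal above 3038400; inactive = fall in fluorescence gain under 50%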;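 note: plate controls were neutral control wells for no effect and wells lacking membranes for full effect; tested at 10 µM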
# Target sequence (Q03530 whole entry, looked up): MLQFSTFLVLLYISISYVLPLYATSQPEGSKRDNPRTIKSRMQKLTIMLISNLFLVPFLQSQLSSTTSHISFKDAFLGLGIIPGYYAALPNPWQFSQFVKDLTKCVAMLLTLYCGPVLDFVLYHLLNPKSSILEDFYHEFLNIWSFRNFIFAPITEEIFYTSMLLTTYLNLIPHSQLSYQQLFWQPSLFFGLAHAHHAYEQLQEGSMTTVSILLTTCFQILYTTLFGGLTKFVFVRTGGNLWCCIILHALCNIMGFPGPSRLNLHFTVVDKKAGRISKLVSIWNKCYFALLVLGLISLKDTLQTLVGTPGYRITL
# HIV Env fusion: HIV envelope-mediated fusion inhibition | inhibition, % at 12.3 µM | HeLa-JRFL Env/CEM21 cell fusion, luciferase | AID 651610 | hit rate 1.1% among 360,000;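 active = mean replicate inhibition score of at least 50 and every replicate individually at or above 50; inconclusive = only one of the two criteria met; inactive = mean below 50 and not all replicates reaching 50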;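 note: 0% = plate neutral controls and 100% = maraviroc near 300 nM; one replicate is shown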
# PABP FP inh: PABP-poly(A) binding inhibition | hit rate 1% among 290,000 | PABP-poly(A) RNA binding, fluorescence polarization | AID 2014 | inhibition, % at 35 µM | P11940;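 active = 50% or more with normal probe brightness, or confirmed in later tests; inconclusive = above 50% with abnormal brightness, or retests that disagree; inactive = below 50% or failed in later tests; about a fifth of its hits are not listed in these tables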;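 note: calls also rest on retests at 20 µM and on dose response follow-up; controls were probe without protein and protein plus probe with vehicle; some compounds called inactive have numbers as strong as hits; many hits fall short of the cut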
# Target sequence (P11940 whole entry, looked up): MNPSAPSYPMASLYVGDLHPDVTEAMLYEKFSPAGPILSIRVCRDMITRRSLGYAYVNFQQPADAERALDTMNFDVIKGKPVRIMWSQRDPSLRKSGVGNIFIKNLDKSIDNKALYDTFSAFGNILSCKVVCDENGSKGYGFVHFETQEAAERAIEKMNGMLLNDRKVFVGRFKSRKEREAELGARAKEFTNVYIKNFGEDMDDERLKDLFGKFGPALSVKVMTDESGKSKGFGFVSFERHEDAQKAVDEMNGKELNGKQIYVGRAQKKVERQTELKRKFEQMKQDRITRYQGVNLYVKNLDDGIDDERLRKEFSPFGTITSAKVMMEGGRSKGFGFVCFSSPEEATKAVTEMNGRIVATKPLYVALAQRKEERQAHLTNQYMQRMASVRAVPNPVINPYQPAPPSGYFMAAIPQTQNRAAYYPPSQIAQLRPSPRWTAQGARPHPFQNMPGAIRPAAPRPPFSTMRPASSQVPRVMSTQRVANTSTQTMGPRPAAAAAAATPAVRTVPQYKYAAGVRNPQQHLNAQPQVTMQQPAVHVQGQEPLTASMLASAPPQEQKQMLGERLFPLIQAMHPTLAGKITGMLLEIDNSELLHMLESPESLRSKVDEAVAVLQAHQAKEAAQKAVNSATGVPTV
# eIF4H inh: inhibitors of RNA binding by human eIF4H; Q15056; eIF4H fluorescence polarization binding assay; inhibition, % at 35 µM; hit rate 0.94% among 290,000; AID 2012;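 active = 50% or more with normal probe brightness, or confirmed in later tests; inconclusive = above 50% with abnormal brightness, or retests that disagree; inactive = below 50% or failed in later tests; about a fifth of its hits are not listed in these tables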;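 note: calls also rest on retests at 20 µM and on dose response follow-up; 0% = protein and probe with vehicle and 100% = probe without protein; strong numbers were not always called active; many hits fall short of the cut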
# CSC inhib: cancer stem cell inhibition | inhibition, % at 7.5 µM | cancer stem cell-like cells viability, luminescence | AID 2717 | hit rate 1.1% among 300,000;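 active = mean at 75% or more and at least half the replicates too; inconclusive = mean and replicates disagree; tested in HMLE shEcad cells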;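 note: 0% = median of negative and 100% = median of positive control wells; the first replicate is given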
# eIF4H inh retest: second read-out of eIF4H inh, no call of its own (marks repeat the call); inhibition, %; compound at 20 µM; confirmation average;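 mean of two retest wells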
# PABP FP inh retest: second read-out of PABP FP inh, no call of its own (marks repeat the call); inhibition, %; compound at 20 µM; confirmation repeats;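 mean of two retest wells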
# MT1-MMP act inh RFP: recorded beside MT1-MMP act inh, whose call it bears; RFP signal change, %; measured here: RFP expression control read;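 0 = vehicle wells; hits needed this value within 50% of zero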
# The depositor's hits bear a star; i = inactive; ? = inconclusive; · = not tested or not shown; & = joins results of further samples; [ ] = another dose, or the depositor's remark.
SMILES,Yeast UUG start,MT1-MMP act inh,MT1-MMP act inh RFP,Rce1 inhib,HIV Env fusion,PABP FP inh,eIF4H inh,CSC inhib,others
COc1ccc(OC)c(S(=O)(=O)n2c([N+](=O)[O-])cnc2C)c1,-6,2,-2,i,-1,1,-9,-4,
COc1ccc(C2=CC(c3ccc(F)cc3)n3nnnc3N2)cc1 (configuration not stated),-35,-88,1,i,-94,-9,0,-5,
COc1cc(CN(CC(C)C)S(=O)(=O)c2ccccc2Br)cc(OC)c1,-16,-7,-10,·,-6,·,·,·,
CCCCN1CNC(=S)N(Cc2ccccc2)C1,-17,4,7,i,-6,-4,-7,2,
O=c1[nH]c2ccc(NS(=O)(=O)c3ccc(Cl)cc3)cc2[nH]1,-14,3,0,i,-65,102,10,2,eIF4H inh retest=4;PABP FP inh retest=-6
Cc1ccc2[nH]cc(C(=O)CN3CCOCC3)c2c1,-11,2,4,i,·,-2,-6,-3,
Cc1ccc(C(=O)NCCc2ccncc2)cc1,-21,-5,-2,i,-125,-2,-1,-14,
CCOC(=O)c1nn(-c2ccc(Cl)cc2)c2nc(-c3ccc(C)cc3)c(C#N)c(=O)n12,-8,-5,-3,i,·,1,-1,-9,
CCOc1c(Br)cc(CNC2CCCCCCC2)cc1OC,·,2,-6,i,-29,10,5,28,
CC(=O)c1ccc(N2CCN(C(=O)c3nn(Cc4ccccc4)c(=O)c4ccccc34)CC2)cc1,·,-4,-6,i,41,?,6,21,
CCCCN(C(=O)C1CCCO1)c1c(N)n(CCC)c(=O)[nH]c1=O (configuration not stated),-6,-1,-1,·,-5,·,·,-5,
O=C(Cn1nnc(-c2ccc([N+](=O)[O-])cc2)n1)NNC(=O)c1ccccc1,-17,1,0,i,·,7,-1,2,
O=C(O)c1cc2n(n1)CCN(Cc1ccccc1Cl)C2=O,·,5,6,i,5,7,-4,-11,
COc1cc(NC(=O)c2cc3c(Cl)nc4ccccc4c3s2)cc(OC)c1OC,·,8,2,i,16,8,-3,-4,
CCOC(=O)N1CCN(S(=O)(=O)c2cc(Cl)c(OC)cc2Cl)CC1,-23,4,-2,i,10,-9,-5,-12,
Cc1cccc(C(=O)C2CCOC(C)(C)C2)c1 (configuration not stated),·,3,-4,i,6,14,-4,9,
O=C(Nc1nnc(C2CCCCC2)s1)c1ccc(Br)s1,-8,2,1,i,-79,-19,-13,-1,
CCCCCCCCCCCC(=O)NC(C(=O)OCC)C(O)c1cccc([N+](=O)[O-])c1 (configuration not stated),-5,-8,-17,i,39,-11,-9,-5,
O=C(NCCOc1ccccc1Cl)C(=O)NCCOc1ccccc1Cl,-14,2,3,i,7,-5,1,7,
COc1cc(N2C(=O)NC3CC2(C)Oc2ccccc23)cc(OC)c1OC (configuration not stated),4,1,6,i,·,-11,-3,-2,
O=C(N1CCOCC1)n1nnc2ccccc21,-23,6,4,i,-153,2,2,-4,
CCN1CCN(C(=O)C2=C(C(=O)O)CCCC2)CC1,-2,-2,7,i,-47,2,-8,-2,
C=CCOC(=O)C1=C(C)N=C2SCCC(=O)N2C1/C=C/c1ccccc1OC (configuration not stated),·,-4,-6,i,6,0,2,-8,
CCOc1ccc(NC(=O)CN(C)C(=O)c2c(-c3c(F)cccc3Cl)noc2C)cc1OCC,-5,4,-1,i,-13,·,·,-11,
CCOC(=O)c1c(NC(=O)c2ccccc2Br)sc2c1CCc1ccccc1-2,-12,-1,-7,i,26,-1,-7,9,
CCOc1ccc(C2C(C(=O)c3cccs3)=C(O)C(=O)N2CCCn2ccnc2)cc1 (configuration not stated),·,·,·,·,·,-4,-4,6,
O=C(/C=C/c1ccc2c(c1)OCO2)Nc1nc(-c2ccc(F)cc2)cs1,·,·,·,i,·,-2,-4,42,
Cc1ccc(Nc2nc(C)cc(C)n2)c(Br)c1,2,0,-1,i,-33,-9,-1,-8,
Cc1ccc(CNC(=O)CCS(=O)(=O)c2ccc(Br)s2)o1,-3,-1,1,i,-22,3,-8,-13,
NC(=S)N/N=C\c1c2ccccc2cc2ccccc12,-29,7,1,·,-44,6,26,14,
Cc1ccc(S(=O)(=O)Nc2c(C)nc3nc(C)[nH]n3c2=O)c(C)c1,-10,2,5,·,22,2,-7,-10,
COC(=O)c1ccc(NC(=O)CS(=O)(=O)c2ccccc2)cc1,5,-2,-2,i,-2,3,17,-8,
Cc1ccc(-n2c3c(cc(C(=O)NCc4ccco4)c2=O)C(=O)CCC3)cc1,-10,-1,3,i,25,-3,-8,0,
CC1CCN(C(=O)c2[nH]cnc2C(=O)N[C@@H](C)c2ccccc2)CC1,-9,1,1,·,-15,·,·,-17,
CC(C)c1nc2c([nH]1)c(=O)n(C)c(=O)n2C,·,3,3,i,-4,5,54*,-9,eIF4H inh retest=76*;PABP FP inh retest=42
C1=CCC(CN2CCNCC2)CC1 (configuration not stated),·,0,1,i,-20,8,-10,-5,
O=C(Cc1cccs1)N/N=C/c1ccco1,-9,4,5,i,4,1,3,-7,
CCC(=O)c1ccc(N2CCC(C)CC2)c(F)c1,-14,2,0,i,-15,9,4,-5,
O=C(CN1CCN(S(=O)(=O)c2ccc(F)cc2)CC1)Nc1ccc(F)cc1F,-8,-3,0,i,-10,-1,-13,-3,
O=C(NCCCO)C(=O)c1c(-c2ccccc2)cc2ccccn12,·,2,3,·,0,-16,-1,7,
CCOC(=O)C1CCN(c2ccc(C(=O)O)cc2[N+](=O)[O-])CC1,-7,-4,-3,i,7,-1,-6,-6,
O=C(CSc1n[nH]c(=O)[nH]c1=O)Nc1ccc(Br)cc1Br,-32,0,0,·,-2,·,·,0,
O=c1cc(CN2CCN(c3cccc(Cl)c3)CC2)c2cc3c(cc2o1)CCCC3,-8,-10,-4,i,-66,0,-8,·,
COc1ccc2cc(C(C)=O)c(=O)oc2c1,-6,-1,3,i,-110,-11,-4,9,
CC(NC(=O)c1cc(F)c(F)c(F)c1F)c1ccc(-n2ccnc2)cc1 (configuration not stated),-21,1,-7,i,-6,-8,-6,-16,

# Ordered by formula weight (ascending): some entries from above.
SMILES,Yeast UUG start,MT1-MMP act inh,MT1-MMP act inh RFP,Rce1 inhib,HIV Env fusion,PABP FP inh,eIF4H inh,CSC inhib,others
C1=CCC(CN2CCNCC2)CC1 (configuration not stated),·,0,1,i,-20,8,-10,-5,
COc1ccc2cc(C(C)=O)c(=O)oc2c1,-6,-1,3,i,-110,-11,-4,9,
CC(C)c1nc2c([nH]1)c(=O)n(C)c(=O)n2C,·,3,3,i,-4,5,54*,-9,eIF4H inh retest=76*;PABP FP inh retest=42
O=C(Cc1cccs1)N/N=C/c1ccco1,-9,4,5,i,4,1,3,-7,
CCC(=O)c1ccc(N2CCC(C)CC2)c(F)c1,-14,2,0,i,-15,9,4,-5,
NC(=S)N/N=C\c1c2ccccc2cc2ccccc12,-29,7,1,·,-44,6,26,14,
Cc1ccc(Nc2nc(C)cc(C)n2)c(Br)c1,2,0,-1,i,-33,-9,-1,-8,
CCOC(=O)C1CCN(c2ccc(C(=O)O)cc2[N+](=O)[O-])CC1,-7,-4,-3,i,7,-1,-6,-6,
COC(=O)c1ccc(NC(=O)CS(=O)(=O)c2ccccc2)cc1,5,-2,-2,i,-2,3,17,-8,
CC1CCN(C(=O)c2[nH]cnc2C(=O)N[C@@H](C)c2ccccc2)CC1,-9,1,1,·,-15,·,·,-17,
CC(NC(=O)c1cc(F)c(F)c(F)c1F)c1ccc(-n2ccnc2)cc1 (configuration not stated),-21,1,-7,i,-6,-8,-6,-16,
Cc1ccc(CNC(=O)CCS(=O)(=O)c2ccc(Br)s2)o1,-3,-1,1,i,-22,3,-8,-13,
O=c1cc(CN2CCN(c3cccc(Cl)c3)CC2)c2cc3c(cc2o1)CCCC3,-8,-10,-4,i,-66,0,-8,·,
O=C(CN1CCN(S(=O)(=O)c2ccc(F)cc2)CC1)Nc1ccc(F)cc1F,-8,-3,0,i,-10,-1,-13,-3,
O=C(CSc1n[nH]c(=O)[nH]c1=O)Nc1ccc(Br)cc1Br,-32,0,0,·,-2,·,·,0,

# The main list resumes with the 2 entries that preceded the break.
SMILES,Yeast UUG start,MT1-MMP act inh,MT1-MMP act inh RFP,Rce1 inhib,HIV Env fusion,PABP FP inh,eIF4H inh,CSC inhib,others
COc1ccc2cc(C(C)=O)c(=O)oc2c1,-6,-1,3,i,-110,-11,-4,9,
CC(NC(=O)c1cc(F)c(F)c(F)c1F)c1ccc(-n2ccnc2)cc1 (configuration not stated),-21,1,-7,i,-6,-8,-6,-16,
O=C(COC(=O)C1CCN(c2ccc(C(F)(F)F)cn2)CC1)Nc1cccc(F)c1,-10,9,-2,i,-9,·,·,-6,
COc1ccc(/C=N\NC(=O)c2ccccc2)cc1COc1ccc(F)cc1,1,-1,0,i,18,-3,-5,31,
COc1ccccc1-c1cnc2c(c1)C(=O)N([C@@H](C)CO)C[C@@H](C)[C@@H](CN(C)C(C)=O)O2,-8&-2,-1,7,·,6&-9[16.7 µM],·,·,·,
O=C(Nc1ccc2oc(-c3ccccc3Cl)nc2c1)c1cncc(Br)c1,-13,4,1,·,-106,2,4,24,
Cc1nn(-c2ccccc2)nc1C(=O)NNC(=O)c1ccc(C(F)(F)F)cc1,-15,3,5,i,8,7,2,9,
CSCC[C@H](N)C(=O)N1CCC(C(=O)N[C@@H](C)C(=O)NCc2ccc(F)cc2)CC1,-1,2,4,i,·,4,-15,-3,
COc1cc(OC)c2c(-c3ccccc3)cc(=O)oc2c1C(CC(=O)N1CCN(c2ccccc2)CC1)c1ccc(N(C)C)cc1 (configuration not stated),-10,3,-6,i,16,-2,-2,-2,
Cc1ccc(NC(=O)CN(C)C(=O)c2cccc(Br)c2)cc1,-5,-5,-3,i,-5,-1,-10,7,
COc1cccc(-c2cccc(NC(=O)C3CCN(Cc4ccc(CO)o4)CC3)c2)c1,-9,-1,1,i,4,-3,-7,0,
Cc1cc(=O)oc2cc(OC(C)C(=O)NCc3ccccn3)ccc12 (configuration not stated),-16,1,4,i,4,-8,-15,10,
O=C(CSc1nnc(C2CC2)n1C1CC1)c1cc(F)ccc1F,-13,0,0,·,-21,·,·,·,
CCc1cc(C(=O)COc2ccc(F)cc2)c(O)cc1O,·,-1,-3,i,-14,-5,7,-8,
CC(C)n1ncc2c(C(=O)N3CCN(Cc4cccs4)CC3)cc(C3CC3)nc21,-24,-3,-1,·,3,·,·,·,
Cc1ccc(-n2c(SCC(=O)NCCN3C(=O)CSC3=O)nnc2-c2ccccc2F)cc1,·,0,4,i,-19,49,-9,9,
COC(=O)c1cc2oc3ccccc3c2n1CC(=O)N1CCCc2ccccc21,·,-6,-4,i,-93,9,9,-8,
CNC(=O)C1Cc2ccccc2CN1S(=O)(=O)c1cccs1 (configuration not stated),-16,-3,-3,i,·,2,11,-3,
COc1ccc(S(=O)(=O)N2CCC(C(=O)NC3CCCCC3C)CC2)cc1 (configuration not stated),-28,0,-1,·,-10,3,-12,13,
COc1ccccc1OCc1ccc(C(=O)N(C)C)o1,-20,6,5,i,·,0,-2,-9,

# This is a subset; the hit share may differ from the screen's.
